Source: PubChem BioAssay (several laboratories)
Yeast UUG start – alters start codon recognition fidelity in yeast; S. cerevisiae UUG-firefly luciferase reporter, luminescence/redox ratio; activity score, % at 18.7 µM; 350,000 tested, 0.13% active; AID 602363;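 active = replicate mean at a twofold rise or more, about +100% in these data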;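 also: firefly luciferase made from a UUG start codon reports start codon fidelity; reporter light over untreated wells divided by growth signal over untreated wells; some hits fall short of that in this replicate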
MT1-MMP act inh – MT1-MMP (human) activation inhibition | HT1080 RFP-PRO-GFP cells, GFP/RFP ratio fluorescence, overnight; percent of plate control window, DMSO zero | GFP/RFP ratio change, % at 20 µM | 360,000 tested, 0.061% active | AID 651647;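 active = GFP/RFP ratio change of at least 30% with cell ATP level not reduced by more than half and red fluorescence within 50% of control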; also: strong numbers were not always called active
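system = RFP-PRO-GFP reporter HT1080 cells | dosing = 20 µM single dose, 1% DMSO | timing = overnight cell settling, then overnight compound exposure, 37 °C, 5% CO2 | read-out basis = GFP/RFP fluorescence ratio | controls = DMSO and RFP-L50D-GFP cell wells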
HIV Env fusion – blocks HIV Env-driven cell-cell fusion. inhibition, % at 12.3 µM. HeLa-JRFL Env/CEM21 cell fusion, luciferase. 360,000 tested, 1.1% active;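 active = mean replicate inhibition score of at least 50 and every replicate individually at or above 50; inconclusive = only one of the two criteria met; inactive = mean below 50 and not all replicates reaching 50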;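 also: 0% = plate neutral controls and 100% = maraviroc near 300 nM; one replicate is shown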
Rce1 inh – blocks yeast Ras-converting enzyme | Q03530 | yeast membranes, quenched prenylated peptide cleavage fluorescence | calls only | 290,000 tested, 0.27% active | AID 2563;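 active = fall in fluorescence gain of 50% or more versus controls, with final raw signal at or below 3038400; inconclusive = same 50% fall but final raw signal above 3038400; inactive = fall in fluorescence gain under 50%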;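 also: plate controls were neutral control wells for no effect and wells lacking membranes for full effect; tested at 10 µM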
Target sequence (Q03530 whole entry, looked up): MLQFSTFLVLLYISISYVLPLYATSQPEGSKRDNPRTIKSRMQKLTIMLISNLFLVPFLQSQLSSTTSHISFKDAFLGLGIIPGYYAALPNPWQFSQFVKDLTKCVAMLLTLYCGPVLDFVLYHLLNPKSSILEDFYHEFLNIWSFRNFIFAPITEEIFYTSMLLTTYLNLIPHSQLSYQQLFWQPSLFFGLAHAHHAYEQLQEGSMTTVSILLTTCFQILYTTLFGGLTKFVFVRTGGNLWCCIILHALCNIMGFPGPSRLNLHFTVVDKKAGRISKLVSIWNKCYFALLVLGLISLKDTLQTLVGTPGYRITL
eIF4H FP inh – inhibitors of RNA binding by human eIF4H; AID 2012; inhibition, % at 35 µM; 290,000 tested, 0.94% active; eIF4H fluorescence polarization binding assay; Q15056;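 active = 50% or more with normal probe brightness, or confirmed in later tests; inconclusive = above 50% with abnormal brightness, or retests that disagree; inactive = below 50% or failed in later tests; about a fifth of its hits are not listed in these tables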;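 also: calls also rest on retests at 20 µM and on dose response follow-up; 0% = protein and probe with vehicle and 100% = probe without protein; strong numbers were not always called active; many hits fall short of the cut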
PABP FP inh – PABP-poly(A) binding inhibition | PABP-poly(A) RNA binding, fluorescence polarization | inhibition, % at 35 µM | 290,000 tested, 1% active | AID 2014;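 active = 50% or more with normal probe brightness, or confirmed in later tests; inconclusive = above 50% with abnormal brightness, or retests that disagree; inactive = below 50% or failed in later tests; about a fifth of its hits are not listed in these tables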;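 also: calls also rest on retests at 20 µM and on dose response follow-up; controls were probe without protein and protein plus probe with vehicle; some compounds called inactive have numbers as strong as hits; many hits fall short of the cut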
CSC inhib – cancer stem cell inhibition | cancer stem cell-like cells viability, luminescence | inhibition, % at 7.5 µM | 300,000 tested, 1.1% active | AID 2717;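 active = mean at 75% or more and at least half the replicates too; inconclusive = mean and replicates disagree; tested in HMLE shEcad cells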;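 also: 0% = median of negative and 100% = median of positive control wells; the first replicate is given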
eIF4H FP inh retest – also measured in eIF4H FP inh; calls as there; inhibition, %; compound at 20 µM; confirmation average;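 mean of two retest wells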
PABP FP inh retest – further read-out of PABP FP inh, marked with its call; inhibition, %; compound at 20 µM; confirmation repeats;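 mean of two retest wells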
MT1-MMP act inh RFP – further read-out of MT1-MMP act inh, marked with its call; RFP signal change, %; measured here: RFP expression control read;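 0 = vehicle wells; hits needed this value within 50% of zero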
The depositor's hits bear a star; i = inactive; ? = inconclusive; . = not tested or not shown; & = joins results of further samples.

SMILES	Yeast UUG start	MT1-MMP act inh	MT1-MMP act inh RFP	HIV Env fusion	Rce1 inh	eIF4H FP inh	PABP FP inh	CSC inhib	others
O=C(NNC(=O)c1ccco1)c1cccc([N+](=O)[O-])c1	-18	3	6	-112	i	0	-6	-6
Cc1ccc(Nc2nc(CSc3nnnn3C)cs2)cc1	-28	4	3	-91	i	-7	1	-7
C/C(=N\OCC(=O)Nc1ccccc1Br)c1cccs1	.	1	0	-15	i	-3	2	.
COc1cccc(NC(=O)Cn2c(-c3cncs3)nc3ccccc32)c1	-16	1	2	.	i	-2	-4	-4
COc1ccc(-c2cn3c(C)c(C(=O)N4CCN(c5ccccc5F)CC4)sc3n2)cc1	-9	-7	-13	.	i	0	-4	11
Cc1cc(C)cc(NS(=O)(=O)c2ccc3[nH]cc(C(=O)NCc4ccco4)c(=O)c3c2)c1	-30	-10	-25	.	i	14	17	99*
C=CCSc1nnc2nc3c(nn12)c1cc(C)ccc1n3CC=C	12	-1	-5	-135	i	-12	5	7
N#CCC(=O)N/N=C/c1cn(Cc2ccc(Cl)cc2Cl)c2ccccc12	-4	11	-11	12	i	-6	3	-10
O=C(O)C1=C(OCc2ccccc2)C(=O)NCC1	.	-3	1	0	i	-6	5	-9
O=C(NCc1ccc(F)cc1)c1cc(C2CCCCN2S(=O)(=O)c2ccc(F)cc2F)on1 (stereo unspecified)	-31	-4	-5	33	.	.	.	.
CCN(CC)C(=O)[C@H]1CC(CC(=O)NCc2cccc(C(F)(F)F)c2)C(=O)N2CCc3c([nH]c4ccc(OC)cc34)[C@]12C (stereo partly specified)	9	-5	-11	-9	.	.	.	.
COc1ccc(N=C2S/C(=C\c3cc(C)n(C)c3C)C(=O)N2C)cc1	-4	-4	-5	.	i	4	2	23
NC(=O)Cn1nc2sc3ccccc3n2c(=O)c1=O	.	.	.	8	i	-4	1	-8
COc1ccc(C(=O)NCCCN2CCN(CCCNC(=O)c3ccc(OC)c(OC)c3)CC2)cc1OC	-10	3	-2	-43	.	.	.	.
CN(Cc1ccccc1Cl)C(=O)CNC(=O)C12CC3CC(CC(C3)C1)C2	11	6	-8	3	.	.	.	-6
Cc1ccc(CNC(=O)/C=C/[C@H]2O[C@@H](n3cc(C)c(=O)[nH]c3=O)C[C@@H]2O)o1	-6	5	8	16	.	.	.	.
Cc1ccc(NC(=O)c2cc(N3C(=O)C4CC=CCC4C3=O)ccc2N2CCCCC2)cc1 (stereo unspecified)	-10	-3	-6	-11	i	4	-10	23
COc1ccc(/C=C/c2cc(O)cc(O[C@@H]3O[C@H](CO)[C@@H](O)[C@H](O)[C@H]3O)c2)cc1O	-12	9	1	-62	.	.	.	.
CC(C)n1cc(CN2CCC(n3nccc3NC(=O)C3CCCC3)CC2)cn1	-7	0	2	5	i	-8	0	-16
CCN(C[C@H]1N[C@@](Cc2ccccc2)(C(=O)OC)[C@H]2C(=O)N(Cc3ccccc3)C(=O)[C@@H]12)S(=O)(=O)c1ccc(C)cc1	-6	1	-3	-74	.	.	.	.

Brought forward from above: 7 compounds, followed by the next part.
SMILES	Yeast UUG start	MT1-MMP act inh	MT1-MMP act inh RFP	HIV Env fusion	Rce1 inh	eIF4H FP inh	PABP FP inh	CSC inhib	others
COc1ccc(C(=O)NCCCN2CCN(CCCNC(=O)c3ccc(OC)c(OC)c3)CC2)cc1OC	-10	3	-2	-43	.	.	.	.
CN(Cc1ccccc1Cl)C(=O)CNC(=O)C12CC3CC(CC(C3)C1)C2	11	6	-8	3	.	.	.	-6
Cc1ccc(CNC(=O)/C=C/[C@H]2O[C@@H](n3cc(C)c(=O)[nH]c3=O)C[C@@H]2O)o1	-6	5	8	16	.	.	.	.
Cc1ccc(NC(=O)c2cc(N3C(=O)C4CC=CCC4C3=O)ccc2N2CCCCC2)cc1 (stereo unspecified)	-10	-3	-6	-11	i	4	-10	23
COc1ccc(/C=C/c2cc(O)cc(O[C@@H]3O[C@H](CO)[C@@H](O)[C@H](O)[C@H]3O)c2)cc1O	-12	9	1	-62	.	.	.	.
CC(C)n1cc(CN2CCC(n3nccc3NC(=O)C3CCCC3)CC2)cn1	-7	0	2	5	i	-8	0	-16
CCN(C[C@H]1N[C@@](Cc2ccccc2)(C(=O)OC)[C@H]2C(=O)N(Cc3ccccc3)C(=O)[C@@H]12)S(=O)(=O)c1ccc(C)cc1	-6	1	-3	-74	.	.	.	.
Nc1ccc(-c2cc(NC=O)c3ncc(-c4cccc(C(F)(F)F)c4)n3c2)cn1	-39	-7	-13	-5	.	.	.	.
O=C1NC(=Nc2ccccc2)S/C1=C\c1ccccc1	-15	0	0	-7	i	-4	-8	21
COc1ccc(C(=O)NNc2ccccc2)cc1OC	-21	-2	-1	.	i	-12	-1	83*
CCCC(=O)OCC(=O)Nc1ccc2[nH]c(=O)[nH]c2c1	.	1	3	1	i	-4	-1	-10
CC(C)CC(=O)Nc1ccc(N2CCN(C(=O)c3cccs3)CC2)cc1	-4	-1	1	10	i	-15	12	-18
O=c1c2ccccc2c2ccccc2c(=O)n1-c1ccccc1	.	-1	1	1	i	6	6	-3
Cc1ccc(C(CNC(=O)Nc2cccc(C)c2)N2CCN(C)CC2)cc1 (stereo unspecified)	-18	-1	3	-9	i	-4	2	-10
COc1ccc(C(CNC(=O)c2c(C)nn(Cc3ccc(C)cc3)c2Cl)N2CCOCC2)cc1 (stereo unspecified)	-8	32*	-1.8*	19	.	.	.	.
Cc1nsc2c1ccc1ccccc12	.	-2	4	-17	.	-2	7	-12
CCNc1ccc(S(=O)(=O)N(C)C)cc1NCC(=O)Nc1ccc(F)c(Cl)c1	8	-2	-10	5	i	5	-3	-3
Cc1ccc(OCc2nc(C#N)c(N3CCCC3)o2)cc1	-5	-2	-13	.	i	-6	-1	4
Cc1ccc(OCCC(=O)OCC(=O)Nc2ccc3c(c2)OCCO3)cc1	.	7	7	-2	i	.	.	-10
CCN(CCNCC(O)COc1ccccc1C(C)C)c1cccc(C)c1 (stereo unspecified)	-3	-3	0	18	i	-4	5	100*
CC(C)c1ccc(NC(=O)Nc2nc(C(N)C(C)C)cs2)cc1 (stereo unspecified)	-5	-2	-3	-21	.	.	.	.
CSc1nnc(NC(=O)c2nc(S(=O)(=O)Cc3ccccc3F)ncc2Cl)s1	-9	-2	2	-187	i	20	14	?
CC1CCc2sc(C(=O)OCC(=O)NCc3ccccc3)cc2C1 (stereo unspecified)	.	1	3	-10	i	-8	-1	1
COC(=O)C1=C(C)N(C)C(=O)NC1c1cc2c(cc1[N+](=O)[O-])OCO2 (stereo unspecified)	.	-3	2	-11	i	111	11	-1	eIF4H FP inh retest=-3;PABP FP inh retest=40
O=C(NC(Cc1c[nH]c2ccccc12)c1nnc2n1CCCCC2)c1ccccc1Cl (stereo unspecified)	-13	10	-1	0	i	1	-2	-13
CN(CC(=O)Nc1nccs1)S(=O)(=O)c1ccc(F)cc1	-12	23	3	.	i	1	-2	-6
NC(=S)NNC(=O)C12CC3CC(CC(C3)C1)C2	-33	7	7	6	i	0	-6	24
Cc1ccc(C(=O)NN(CCC#N)C2=NS(=O)(=O)c3ccccc32)cc1	.	0	3	-9	i	4	7	-4
COc1ccccc1N(CCN1C(=O)c2cccc3cccc(c23)C1=O)C(=O)c1ccncc1	.	.	.	.	i	-13	-2	-8
Cc1ccc(-n2c(Cc3cccn3C)nnc2SCC(N)=O)cc1	-7	6	2	.	i	2	14	-5
Cc1nnc(SCc2cc(=O)n3[nH]cnc3n2)s1	1	2	3	.	.	-1	6	-5
COc1ccc(CC(=O)Nc2ccc(N3CCN(c4ccc(OC)cc4)CC3)c(C#N)c2)cc1	-7	8	4	.	i	-6	0	10
C/C(CC(=O)NCc1ccc(F)cc1)=N\NC(N)=S	-52	-3	4	-10	i	-1	-4	-23
COc1ccc(CCn2c(C)cc(C(=O)CSc3nnnn3C)c2C)cc1	.	1	3	.	i	9	19	-7
O=C1c2ccccc2-c2nc3ccccc3n21	.	1&4	4&8	-29	i	-6	-2	1&-2
CCOc1ccc(C(=O)C[n+]2ccc(C(=O)NCCO)cc2)cc1	.	-4	-1	18	i	-3	-7	2
Cc1ccccc1OCCC(=O)OCC(=O)Nc1ccc(C(N)=O)cc1	-9	2	2	5	.	-12	8	-12
O=C1Nc2ccccc2C1C(C[N+](=O)[O-])c1ccccn1 (stereo unspecified)	-20	-3	1	12	i	6	8	-2
CCOC(=O)c1cccnc1SCC(=O)N(C)c1ccccc1	-8	-4	1	-14	i	-11	-4	-7
CCS(=O)(=O)Nc1ccc(C(=O)CC2(O)C(=O)Nc3ccc(Br)cc32)cc1 (stereo unspecified)	-1	-1	-1	.	i	-6	1	14
CCOC(=O)N1CCN(Cc2nc3ccc([N+](=O)[O-])cc3c(=O)n2-c2ccccc2F)CC1	-2	3	-1	-2	i	-13	1	15
O=C(NCc1ccccc1)c1ccc(NC(=O)C2CCC2)cc1	-22	6	2	-20	.	.	.	.
Cc1nnc(SCc2cccc([N+](=O)[O-])c2)s1	.	3	1	0	i	-8	-6	2
CCOc1ccc(C(O)C(CN2CCOCC2)c2ccccc2)cc1 (stereo unspecified)	-9	2	3	.	i	-1	5	-11
CC(=O)N1CCc2cc(S(=O)(=O)N3CCOCC3)ccc21	-12	5	4	2	i	6	-6	-8
Cc1cc2n(n1)C(c1cccs1)Nc1ccccc1-2 (stereo unspecified)	-16	6	3	-41	i	-9	-8	23
Oc1ccccc1-c1nc2cnccn2c1Nc1ccc2c(c1)OCCO2	-17	5	-3	.	i	-5	6	3
Cc1ccccc1NC(=O)NCCc1c[nH]c2ccccc12	1	7	0	-18	i	-2	0	-12
COc1ccc(CC(=O)NCCCSc2ccccc2)cc1OC	-10	-1	-7	-10	i	37	-5	.
Cc1ccc2[nH]c(C(=O)N3CCN(c4cccc(Cl)c4)CC3)cc2c1	-12	2	1	9	i	-3	9	-8
